Screening data from PubChem BioAssay.
HCMV UL50-53 inh – inhibitors of HCMV UL50-UL53 interaction, biochemical, HTRF; normalized percent inhibition; inhibition, % (test concentration not listed); actives 0.15% (n = 190,000); AID 1918969, 2023;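 active = both replicates at 50% or more, plus weaker picks with an unusually low signal ratio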;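 also: stock transfer was 100 nL into about 20 µL; 0% = negative control wells and 100% = wells with untagged competitor protein; inactives centre near -12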
Sa growth 42C – S. aureus growth inhibition at 42 and 30 °C, primary screen, LtaS inhibitor project, RN4220, two temperatures | OD600, 20 h, 42 °C; stronger effect = lower value | relative growth, % (no concentration beside the values) | actives 0.53% (n = 170,000);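 active = growth at 42 °C up to 50% and 20 or more points under that at 30 °C, or under 10% at both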;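 also: 300 nL library stock went into each well; scaled to the means of positive and negative controls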
GIV-Gai inh – inhibitors of GIV peptide binding to Galpha-i3, primary screen, biochemical, fluorescence polarization, FITC-GIV GBA peptide, rat Galphai3; Guanine nucleotide-binding protein G(i) subunit alpha-3 (Rattus norvegicus), P08753; 90 min; stronger effect = lower value; scaled: aluminum fluoride 0%, vehicle 100%; percent of control (FP), % (test concentration not listed); actives 0.42% (n = 210,000); AID 1224905, 2016;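 active = replicate mean at 85% of control or lower, very high polarization wells dropped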;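 also: wells of about 15 µL received 100 nL stock; the first replicate is given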
Target sequence (P08753 whole entry, looked up): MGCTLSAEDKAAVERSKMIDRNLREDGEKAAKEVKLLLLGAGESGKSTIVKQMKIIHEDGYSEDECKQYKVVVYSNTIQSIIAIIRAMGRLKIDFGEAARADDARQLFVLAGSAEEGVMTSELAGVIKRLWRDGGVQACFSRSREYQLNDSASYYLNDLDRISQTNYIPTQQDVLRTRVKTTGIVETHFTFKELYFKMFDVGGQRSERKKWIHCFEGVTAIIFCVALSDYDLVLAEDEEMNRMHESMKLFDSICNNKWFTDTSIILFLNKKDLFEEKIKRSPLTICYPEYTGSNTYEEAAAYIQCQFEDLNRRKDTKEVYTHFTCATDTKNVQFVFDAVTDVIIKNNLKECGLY
Sa growth 42C second temp – further read-out of Sa growth 42C, marked with its call; relative growth, %; measured here: growth at 30 °C;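 optical density after 20 h as mean of two plates; 100% = untreated growth and lower means inhibition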
* = called active by the depositor; / = no result given; & = joins results of further samples. Compounds as they come; overall some 0.85% were active at least once.

structure | Sa growth 42C | HCMV UL50-53 inh | Sa growth 42C second temp | GIV-Gai inh
OC1(CCC2(O)CCCC2)CCCC1 | 77 | 0 | 112 | 106
CCn1c(C(=O)N2CCCC(C(=O)NCCCc3ccccc3)C2)cc2sccc21 (stereo not drawn) | 112 | / | 89 | 106
NC(=O)NCCc1ccccc1 | 84 | -10 | 88 | 101
FC(F)(F)c1ccncc1-c1nc(-c2cc(Cl)cc(Cl)c2)no1 | 122 | 1 | 99 | 99
NS(=O)(=O)c1ccccc1C(=O)N1CCN(C(=O)c2ccccc2S(N)(=O)=O)CC1 | 100 | -18 | 87 | /
CCN(CC)C(CNS(=O)(=O)c1ccc(Cl)cc1)c1ccccc1 (stereo not drawn) | / | 16 | / | 99
Cc1cccc(N2CCn3c2nc2c3c(=O)n(CCCc3ccccc3)c(=O)n2C)c1 | 87 | / | 93 | 108
CCOC(=O)c1sc(NC(=O)CSc2nc(-c3ccco3)c(C#N)c(=O)[nH]2)nc1C | / | -18 | / | 107
CC(C)(C)C(=O)COC(=O)c1ccc(S(=O)(=O)N2CCOCC2)cc1 | 92 | -17 | 90 | /
O=C(CN1CCOCC1)N(C1CCCCC1)C1CCS(=O)(=O)C1 (stereo not drawn) | 117 | -11 | 87 | /
CCOc1cccc(C2c3[nH]c4ccccc4c3CCN2C(=O)CCC2CCCC2)c1 (stereo not drawn) | 98 | / | 91 | 101
C=C(C)Cn1c(=O)c2c(nc3n2CCN3c2ccc(CC)cc2)n(C)c1=O | 108 | / | 90 | 104
CN1C(=O)NC(c2ccc(Cl)cc2)C2=C1CC(C)(C)CC2=O (stereo not drawn) | 84 | -34 | 81 | 104
CC(=O)N1CCC(N(CCN2CCOCC2)C(=O)Nc2ccccc2)CC1 | 103 | / | 91 | 101
C(=N\c1ncn[nH]1)/c1cccs1 | 104 | -22 | 91 | 106
O=C(NCc1ccncc1)c1cccc(Oc2ccccc2)c1 | 105 | -14 | 101 | 107
Clc1ccc(NCc2nc3ccccc3n2CCOc2ccccc2)cc1 | 100 | -21 | 103 | 109
O=C1/C(=C/c2ccc(O)cc2)CS(=O)(=O)c2ccccc21 | 75 | -46 | 58 | /
CCCN(CCC)C(=O)Cn1c(=O)n(CCCCC(=O)NC2CCCC2)c(=O)c2ccccc21 | 101 | -7 | 97 | 99
O=C(Cn1c(=O)oc2cc(S(=O)(=O)N3CCCC3)ccc21)Nc1ccc(OC(F)(F)F)cc1 | 133 | / | 76 | 102
OCCNc1nc2ccccc2n1Cc1ccccc1Cl | 97 | -11 | 96 | /
CCC(C(=O)OC(C)C)n1cnc2sc3c(c2c1=O)CCC(C)C3 (stereo not drawn) | 34* | 3 | 57* | 98
Cc1c(S(=O)(=O)c2ccc(Cl)cc2)csc1C(=O)N(Cc1ccccc1)Cc1cccnc1 | 102 | -32 | 88 | 102
O=C(NCCO)c1c2c(nc3ccccc13)CCCC2 | 115 | -8 | 83 | /
Cc1[nH]c2ccc(C(=O)Oc3ccc4c(c3)OCO4)cc2c1C | 87 | -25 | 86 | /
CCOC(=O)c1c(-c2ccccc2)csc1/N=C/C1C(=O)CCCC1=O | 129 | / | 78 | 103
Cc1cc(OCc2nc(C)c(C(=O)Nc3nnc(C(C)C)s3)s2)ccc1Cl | / | -19 | / | 102
COc1cc(C2NC(=O)NC(C)=C2C(=O)OCc2ccc3c(c2)OCO3)ccc1O (stereo not drawn) | / | -25 | / | 108
CC12CN3CC(C)(CN(C1)C3c1ccccc1O)C2=O (stereo not drawn) | / | -7 | / | 108&101
O=C(NCc1ccc(Cl)cc1)C1CCN(C(=O)c2cnn(-c3ccccc3)c2-n2cccc2)CC1 | 95 | -6 | 83 | 100
CC(=O)NC(=O)NCc1ccccc1 | 104 | 12 | 97 | 107
Cc1ccc(-c2ccc(NC(=O)C3C4C=CC(C4)C3C(=O)O)cc2)o1 (stereo not drawn) | 101 | -65 | 88 | /
CSc1ncc2c(=O)n(CC3CCCO3)ccc2n1 (stereo not drawn) | 105 | 0 | 93 | 106
CCOC(=O)c1c(NC(=O)c2sc3ccccc3c2Cl)sc2c1CCC(C)C2 (stereo not drawn) | / | -22 | / | 102
O=C(O)C1CCc2ccccc2O1 (stereo not drawn) | 95 | 15 | 100 | 101
CC(C(=O)N1CCc2ccccc21)N1CCN(S(=O)(=O)c2ccc(Cl)cc2)CC1 (stereo not drawn) | 94 | -37 | 87 | /
CCCS(=O)(=O)N1CC(=O)N(c2ccc(Cl)cc2)C(C)(C(=O)NC2CCCC2)C1 (stereo not drawn) | 118 | / | 91 | 108
COc1ccc(N2CCN(C(=O)c3ccc(NC(=O)c4nsc5ccccc45)cc3)CC2)cc1 | 92 | / | 86 | 103
O=C(Nc1ccccc1)N1CCc2ccccc21 | 96 | -35 | 77 | 105
CC(C)(C)c1cc(-c2cccs2)c(C#N)c(SCC(=O)Oc2ccccc2)n1 | 94 | -14 | 93 | /
O=C(Nc1ccccc1Cl)[C@H](CSCc1ccccc1)N1Cc2ccccc2C1=O | 105 | -14 | 68 | 104
COCCCn1c(=N)c(C(=O)NC2CCCC2)cc2c(=O)n3cc(C)ccc3nc21 | 106 | -166 | 91 | 107
CCOc1ccc(OCC)c(Nc2cc(C)nc3nc(-c4ccco4)nn23)c1 | 89 | / | 88 | 99
COCCn1c(C)cc(C(=O)COC(=O)c2ccc(NC(=O)CC#N)cc2)c1C | 99 | -8 | 87 | /
CC(=O)c1ccc(N2CCN(C(=O)NCc3noc4ccc(C)cc34)CC2)cc1 | 119 | / | 65 | 102
O=C(CNC(=O)c1ccc(-c2ccccc2)cc1)OC1CCOC1=O (stereo not drawn) | 72 | -26 | 87 | /
O=C1CN(Cc2nc3ccc(Cl)cc3n2CCO)c2ccccc2N1 | 99 | -40 | 83 | /
O=C(Cc1csc(NC(=O)C2CC2)n1)NC1CCCC1 | / | -25 | / | 104
CC(C)CCNC(=O)c1ccc(CS(=O)(=O)c2cccc(C(F)(F)F)c2)o1 | 89 | / | 84 | 108
CC(C)CNC(=O)C(=O)NCc1n[nH]c(=O)c2ccccc12 | / | -8 | / | 102

Two entries picked at random from those above:
structure | Sa growth 42C | HCMV UL50-53 inh | Sa growth 42C second temp | GIV-Gai inh
CSc1ncc2c(=O)n(CC3CCCO3)ccc2n1 (stereo not drawn) | 105 | 0 | 93 | 106
Cc1[nH]c2ccc(C(=O)Oc3ccc4c(c3)OCO4)cc2c1C | 87 | -25 | 86 | /

Next section:
structure | Sa growth 42C | HCMV UL50-53 inh | Sa growth 42C second temp | GIV-Gai inh
O=C(Nc1ccc(Br)cc1)C1CCCN(S(=O)(=O)c2ccc(Br)s2)C1 (stereo not drawn) | 100 | -19 | 90 | 99
CCOc1ccccc1CNc1nc2nc(C)cc(C)n2n1 | 114 | -8 | 90 | 102
CC12CCC(C(=O)NC3CCCCC3)(CC1=O)C2(C)C (stereo not drawn) | 117 | -14 | 94 | 105
Cc1sc2ncc(C(=O)NC3CCCC3)c(=O)n2c1C | / | -23 | / | 101
COc1ccc(C2CC(=O)C3=C(C2)Nc2ccccc2NC3c2ccc(C(F)(F)F)cc2)cc1 (stereo not drawn) | / | -20 | / | 99
COc1ccc(C2NCCO2)cc1OC (stereo not drawn) | 102 | 1 | 78 | 100
CCSc1nsc(NC(=O)Nc2cccc(OC)c2)n1 | 52 | 20 | 61 | 102
CC1CSc2ccc(S(=O)(=O)N3CCOCC3)cc2N(CC(=O)NC2CCCCC2)C1=O (stereo not drawn) | / | -13 | / | 101
COC(=O)c1scc(-c2ccc(C)cc2)c1S(=O)(=O)Nc1cc(Cl)ccc1C | 94 | / | 72 | 102
COC(=O)COc1ccc2c(=O)c(-c3ccccc3OC)coc2c1 | 95 | -8 | 80 | 105
O=C(CCC(=O)N1Cc2ccccc2Oc2ncccc21)NCc1ccccc1F | / | -10 | / | 103
O=C(CN1C(=O)CCC1=O)NC(c1ccccc1)c1ccccc1 | 98 | -7 | 97 | /
COc1cc(/C=N/n2cnc3c(sc(=S)n3C)c2=O)ccc1O | 90 | -9 | 83 | 100
O=C(Nc1cc(F)ccc1F)c1cnn2c(C(F)F)cc(-c3ccccc3)nc12 | 107 | 14 | 103 | 101
Cn1nnnc1SCc1cc(=O)[nH]c2ccccc12 | 89 | 12 | 95 | 101
CC(C)(C#N)Nn1cnnc1 | 101 | 7 | 104 | 99
COc1ccc(/C=C2\CC/C(=C\c3ccc(C)cc3)C2=O)cc1 | 83 | / | 91 | 106
COc1cc(CNc2ccc3c(c2)OCCO3)ccc1OCC(N)=O | 106 | -14 | 81 | /
COC(=O)c1cc2c(ccn2-c2ccc(F)cc2)n1C(C)C | 92 | -2 | 73 | 99
O=C(/C=C/c1c(Cl)nc2sccn12)NCC1CCCO1 (stereo not drawn) | 94 | -66 | 88 | /
c1ccc(-c2nnc(-c3ccccc3)c3nonc23)cc1 | 43 | -34 | 15 | 96
Cc1ccc(CN2CCN(C3CCN(S(=O)(=O)c4ccc(C(C)C)cc4)CC3)C(=O)C2=O)cc1 | / | -22 | / | 102
CC1CN(CC(=O)c2cccs2)CC(C)O1 (stereo not drawn) | 95 | -42 | 95 | /
O=C(O)Cn1nnc(-c2ccc(OCc3cccc(C(F)(F)F)c3)cc2)n1 | 104 | / | 89 | 104
CC1(C)CC(O)CC(C)(C)N1CC(O)COC1CCCCC1 (stereo not drawn) | 82 | -48 | 82 | 104

In the list so far, 4 have a cyano group:
structure | Sa growth 42C | HCMV UL50-53 inh | Sa growth 42C second temp | GIV-Gai inh
CCOC(=O)c1sc(NC(=O)CSc2nc(-c3ccco3)c(C#N)c(=O)[nH]2)nc1C | / | -18 | / | 107
CC(C)(C)c1cc(-c2cccs2)c(C#N)c(SCC(=O)Oc2ccccc2)n1 | 94 | -14 | 93 | /
COCCn1c(C)cc(C(=O)COC(=O)c2ccc(NC(=O)CC#N)cc2)c1C | 99 | -8 | 87 | /
CC(C)(C#N)Nn1cnnc1 | 101 | 7 | 104 | 99

(continued)
structure | Sa growth 42C | HCMV UL50-53 inh | Sa growth 42C second temp | GIV-Gai inh
Cc1ccc(Oc2nc3c(c(=O)n(Cc4ccccc4)c(=O)n3C)n2C)cc1C | 104 | -33 | 91 | 107
CCN1C(=O)/C(=C\c2ccsc2)SC1=S | 96 | / | 90 | 106
CCCCC1CCC(C(=O)N2CC(=O)Nc3ccc(Cl)cc3C2c2ccc(F)cc2)CC1 (stereo not drawn) | 71 | -18 | 80 | 100
COc1ccccc1C1CCN(C(=O)c2cccs2)CC1 | 103 | 4 | 93 | 103
Cc1ccc(Oc2ncccc2C(=O)O)cc1 | 121 | 0 | 88 | 105
COc1ccc(-n2ncc3c2ncn2nc(-c4ccc(Cl)cc4Cl)nc32)cc1 | 112 | -4 | 90 | 108
CCn1cc(C(=O)N2CCCC2)c(=O)c2cc(S(=O)(=O)N(C)C)ccc21 | 98 | / | 92 | 106
Brc1ccc2c(c1)C=CC2 | 100 | -44 | 88 | 98
COc1ccc(CCNC(=O)NC2CC(=O)N(c3ccc4c(c3)OCCO4)C2)cc1OC (stereo not drawn) | 97 | -16 | 91 | 99
O=C(CSc1nnc(-c2ccc(S(=O)(=O)N3CCCC3)cc2)n1CC1CCCO1)NC1CC1 (stereo not drawn) | 106 | 7 | 75 | 101

Ordered by SMILES length (largest number first): part of the list above.
structure | Sa growth 42C | HCMV UL50-53 inh | Sa growth 42C second temp | GIV-Gai inh
CCOc1cccc(C2c3[nH]c4ccccc4c3CCN2C(=O)CCC2CCCC2)c1 (stereo not drawn) | 98 | / | 91 | 101
CC(C)(C)C(=O)COC(=O)c1ccc(S(=O)(=O)N2CCOCC2)cc1 | 92 | -17 | 90 | /
O=C1CN(Cc2nc3ccc(Cl)cc3n2CCO)c2ccccc2N1 | 99 | -40 | 83 | /
Clc1ccc(NCc2nc3ccccc3n2CCOc2ccccc2)cc1 | 100 | -21 | 103 | 109
O=C(/C=C/c1c(Cl)nc2sccn12)NCC1CCCO1 (stereo not drawn) | 94 | -66 | 88 | /
NC(=O)NCCc1ccccc1 | 84 | -10 | 88 | 101

Arranged by value in Sa growth 42C second temp (largest number first): some entries from above
compound | Sa growth 42C second temp | GIV-Gai inh
CCn1cc(C(=O)N2CCCC2)c(=O)c2cc(S(=O)(=O)N(C)C)ccc21 | 92 | 106
Cc1ccc(Oc2nc3c(c(=O)n(Cc4ccccc4)c(=O)n3C)n2C)cc1C | 91 | 107
CCN1C(=O)/C(=C\c2ccsc2)SC1=S | 90 | 106
Cc1ccc(Oc2ncccc2C(=O)O)cc1 | 88 | 105
